From PubChem
RE007 growth inh: qHTS Assay for Inhibitors of the HIV-1 protein Vpr. S. pombe RE007 Vpr strain, BacTiter-Glo ATP luminescence, 24 h; control for the full effect not named in the record. Potency, µM (series often up to 92.2 µM), for inactives: at the top dose activity change, negative = less growth. actives 0.21% (n = 360,000). AID 651644, 2012; active = well fitted falling curve with a large enough effect; inconclusive = small, poorly fitted or top-dose-only effect; inactive = no such curve, though single readings can be large or run the other way;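 further: on the % scale 0 is the no-effect control and ±100 the full control effect; nearly all actives have a fitted effect of over 50% in size; the assay follows cell death caused by Vpr and the record does not say whether a fall means rescue or toxicity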
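Fission yeast RE007 carrying one integrated HIV-1 vpr copy, seeded at OD 0.01 in PMG+AL medium with 23 nL pinned compound. Grown 24 h at 30 degrees; viability read by BacTiter-Glo luminescence after 5 min.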
LASV entry inh: qHTS for Inhibitors of binding or entry into cells for Lassa Virus; Potency, µM (series often up to 37.9 µM), for inactives: at the top dose activity change, negative = inhibition, actives largely listed as inhibitors; actives 1.2% (n = 300,000); Lassa virus pseudotype entry inhibition, cell reporter; control for the full effect not named in the record; AID 540256, 2011; active means well fitted inhibition curve with a large enough effect; inconclusive means small, poorly fitted or top-dose-only effect, or effect the other way; inactive means flat fitted curve, though single readings scatter; tested in HEK293 cells; further: on the % scale 0 is the no-effect control and ±100 the full control effect; nearly all actives have a fitted effect of over 50% in size; luciferase read-out
NS1 function inh: qHTS Assay for Inhibitors of Influenza NS1 Protein Function; S. cerevisiae slowed by influenza A NS1, growth recovery by OD600; Potency, µM (titrated, usually from 46.1 µM), inactives show top-dose activity, positive = more growth; actives 0.4% (n = 270,000); AID 2326, 2010; further: actives are rising curves; nearly all actives have a fitted effect of over 50% in size
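A cell-based growth assay was used: compounds that relieve NS1-induced slow growth of budding yeast raise OD600. Assay medium was yeast nitrogen base with ammonium sulphate and -URA supplement, pH 6.0, with 2% galactose.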
Cruzain inh Det: qHTS Assay for Promiscuous and Specific Inhibitors of Cruzain (with detergent) | actives 0.43% (n = 200,000) | Potency, µM, without a hit: max response, negative = inhibition, most hits filed as inhibitors | Cruzipain (Trypanosoma cruzi), P25779 | purified cruzain, Z-FR-AMC fluorescence, 0.01% Triton; active means well fitted curve in the direction sought with a large enough effect; inconclusive means small, poorly fitted or top-dose-only effect, or another doubt; inactive means no such curve, though single readings can be large; an effect the other way counts as inactive or inconclusive;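 further: plate controls were neutral wells for no effect and buffer without enzyme for full effect; nearly all actives have a fitted effect of over 40% in size; top concentration of the series not given in the record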
Target sequence (P25779 123-467 limits assumed): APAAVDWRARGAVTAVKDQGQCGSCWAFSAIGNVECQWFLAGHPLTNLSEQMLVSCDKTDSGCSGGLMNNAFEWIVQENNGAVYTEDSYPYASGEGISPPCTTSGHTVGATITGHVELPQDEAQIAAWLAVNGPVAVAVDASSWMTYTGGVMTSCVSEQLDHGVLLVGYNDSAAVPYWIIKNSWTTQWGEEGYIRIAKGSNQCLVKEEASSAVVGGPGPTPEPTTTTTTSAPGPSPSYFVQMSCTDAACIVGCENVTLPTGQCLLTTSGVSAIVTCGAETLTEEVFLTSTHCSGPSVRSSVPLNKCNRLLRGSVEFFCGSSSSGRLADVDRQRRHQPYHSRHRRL
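Detergent-containing run (0.01% Triton X-100) in acetate buffer pH 5.5 with 5 mM DTT: enzyme at 1.5 nM final, 15 min compound preincubation at room temperature, then 2 uM Z-FR-AMC substrate. Activity taken as 60 s fluorescence increase at 360/450 nm.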
2A StopGo: High Throughput Screening for Foot and Mouth Disease Virus Antivirals; Potency, µM (titrated, usually from 57.9 µM), for inactives: at the top dose signal change, negative = less light; AID 1159524, 2015; actives 1.2% (n = 410,000); human cells with a luciferase reporter of 2A StopGo recoding; control for the full effect not named in the record; active = well fitted falling curve with a large enough effect; inconclusive = small, poorly fitted or top-dose-only effect; inactive = no such curve, though single readings can be large or run the other way; tested in HEK293T cells; further: on the % scale 0 is the no-effect control and ±100 the full control effect; nearly all actives have a fitted effect of over 45% in size; luciferase light after 4 h
SARS PLP yeast: qHTS of Yeast-based Assay for SARS-CoV PLP. Potency, µM (top dose mostly 32.9 µM), for the others: at the top dose activity, positive = growth rescue. S. cerevisiae expressing SARS-CoV PLpro, growth rescue; control for the full effect not named in the record. AID 485353, 2010. actives 0.19% (n = 330,000); further: 0% is about no effect; nearly all actives have a fitted effect of over 55% in size; growth read by luminescence after 48 h
Cruzain inh noDet: qHTS Assay for Promiscuous and Specific Inhibitors of Cruzain (without detergent) | purified cruzain, Z-FR-AMC fluorescence, no detergent | Potency, µM, for inactives: max response, negative = inhibition, most hits filed as inhibitors | actives 2.3% (n = 200,000); active means well fitted curve in the direction sought with a large enough effect; inconclusive means small, poorly fitted or top-dose-only effect, or another doubt; inactive means no such curve, though single readings can be large; an effect the other way counts as inactive or inconclusive;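 further: plate controls were enzyme without inhibitor for no effect and buffer without enzyme for full effect; nearly all actives have a fitted effect of over 40% in size; top concentration of the series not given in the record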
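Purified cruzain at 1.5 nM, pre-incubated 15 min with compound at room temperature in 100 mM sodium acetate pH 5.5, 5 mM DTT, 0.00005% Triton X-100. Reaction started with 2 uM Z-FR-AMC; AMC fluorescence increase over 60 s gives rate.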
MARV entry inh: qHTS for inhibitors of binding or entry into cells for Marburg Virus; Marburg virus pseudotyped entry inhibition, cell reporter; control for the full effect not named in the record; about a third of the inactives were read at about 46 µM; Potency, µM (highest dose often 37.8 µM), without a hit: top-dose activity change, negative = inhibition, most hits filed as inhibitors; actives 1.8% (n = 300,000); AID 540276, 2011; active = well fitted inhibition curve with a large enough effect; inconclusive = small, poorly fitted or top-dose-only effect, or effect the other way; inactive = flat fitted curve, though single readings scatter; tested in HEK293 cells; about a fifth of its hits are not listed in these tables; further: on the % scale 0 is the no-effect control and ±100 the full control effect; luciferase read-out
* marks the source's active call; other numbers are inactive results; ? = inconclusive; . = no result given; & = joins results of further samples; [ ] = dose if it differs, or a comment. Unless noted, the call rests on the fitted dose curve; in most records, active means well fitted rising curve with a large enough effect; inconclusive means small, poorly fitted or top-dose-only effect; inactive means no such curve, though single readings can be large or run the other way. Potency means the concentration at half of the fitted maximal effect.

Compound	RE007 growth inh	LASV entry inh	NS1 function inh	Cruzain inh Det	2A StopGo	SARS PLP yeast	Cruzain inh noDet	MARV entry inh
O=C(O)c1cc(-c2ccc(/C=N/N3C(=O)C4C5C=CC(CC5)C4C3=O)o2)ccc1Cl (stereo not given)	-3%	17%	4%	.	15%	0%	.	2%[46.1 µM]
CC(C)CC(C(=O)O)N1C(=O)C2C3CC(C2C1=O)C1C(c2ccccc2)c2sc(=O)[nH]c2SC31 (stereo not given)	-9%	5%	?	-3.7%	-4%	13%	?	3%
Cc1cc(NC(=O)C(C)SCC(=O)NCc2ccc(F)cc2)no1 (stereo not given)	32%	27%	.	.	-11%	2%	.	16%
O=S(=O)(NCCc1ccncc1)c1ccc(F)cc1	7%	?	-1%	.	77%[activator]	2%	.	-16%
COc1ccc(Oc2ccc(C(F)(F)F)cc2NC(=O)c2ccc(F)cc2)cc1	1%	-22%	3%	.	?	-5%	.	-3%
Cc1cc2nc(-c3ccc[nH]c3=O)n(Cc3ccccc3F)c2cc1C	1%	12%	1%	.	20%	-1%	.	?
Cc1ccc(S(=O)(=O)N2CCN(C(=O)COC(=O)c3ccc(C(C)(C)C)cc3)CC2)c(C)c1	-3%	?	?	.	-24%	-2%	.	4%
COc1ccc(NC(=O)COC(=O)/C=C/c2ccc(OC)c(S(=O)(=O)N3CCOCC3)c2)cc1	14%	-14%	10%	-7.5%	-27%	4%	5%	-1%
C=CCN(C(=O)c1csnn1)C(C(=O)NCc1ccc(F)cc1)c1ccc(F)cc1 (stereo not given)	7%	-18%[46.1 µM]	6%	.	14%	-2%	.	?
O=C(CCNC(=O)c1ccco1)Nc1ccc(F)c(Cl)c1	6%	-2%[46.1 µM]	4%	.	-1%	14%	.	-2%[46.1 µM]
Cc1nnsc1C(=O)Nc1ccc(S(=O)(=O)N2CCC(C)CC2)cc1	7%	?	-10%	.	-4%	1%	.	?
COC(=O)N1C(=O)[C@@](c2ccccc2)(C(C)C)N1C(=O)OC	-11%	.	-18%	.	?	-14%	.	.
CCc1ccc(Oc2ncnc(N)c2[N+](=O)[O-])cc1	9%	13%[46.1 µM]	0%	.	-5%	-1%	.	?
Clc1ccc2c(NCc3ccccn3)ccnc2c1	-14%	.	3%	.	?	0%	.	.
c1ccc(CCCc2nc(-c3ccccn3)no2)cc1	15%	-1%	-7%	3.2%	.	?	-2%	23%
CC1Cc2cc(S(=O)(=O)N3CCN(c4ccccc4)CC3)ccc2N1C(=O)C1CC1 (stereo not given)	-12%	.	-4%	.	?	-6%	.	.
CCOc1ccc(NC(C(=O)Nc2cccc(C(C)=O)c2)c2ccccc2)cc1 (stereo not given)	5%	-12%	9%	-4.9%	12%	-13%	?	?
Clc1ccccc1CSc1nnc(C2CCNCC2)o1	.	0%[46.1 µM]	.	-0.5%	-3%	.	-1%	-25%[46.1 µM]
CCCc1cc(=O)oc2cc(C)cc(OCC(=O)NCCCN3CCCC3=O)c12	13%	.	5%	.	2%	7%	.	.
Cc1cc(C)n(-c2nc3ccccc3c(=O)n2OCc2ccc(Cl)cc2)n1	-25%	-10%	-10%	-5.5%	-22%	-15%	-7%	-16%
CCn1nnnc1SCC(=O)Nc1cc(C)on1	1%	4%	12%	-0.6%	2%	?	1%	9%[46.1 µM]
CCn1ncc([C@@H]2C[C@H]3CN(Cc4ccccc4C)C(=O)[C@]34CCCN24)c1C	16%	.	2%	.	-4%	1%	.	.
COc1ccccc1C1C=C(c2ccc(Cl)cc2)Nc2nc(-c3ccc(Cl)cc3)nn21 (stereo not given)	.	?	.	-4.7%	-14%	.	14%	?
O=C(COC(=O)c1cc(-c2cccs2)nn1-c1ccccc1)Nc1cc([N+](=O)[O-])ccc1Cl	8%	9%	4%	-1.7%	-4%	-3%	?	-21%[46.1 µM]
Cc1cc(C)c2c(-n3cccc3)c(C(=O)NNS(=O)(=O)c3ccc(Cl)cc3)sc2n1	32%	1%	-74%	-7.2%	23%	-1%	-3%	1%
COc1ccc(CCNC(=O)c2ccc3c(c2)N(Cc2c(F)cccc2Cl)C(=O)CS3)cc1OC	.	?	.	-2.0%	?	.	-2%	.
Cc1cccc(C(=O)NN(C)c2nc(-c3ccccc3)nnc2C(F)(F)F)c1	-1%	4%	2%	4.4%	21%	1%	-6%	-11%
CC(C)CC1N=C2c3ccccc3N=C(SCC(=O)NCCc3ccc(Cl)cc3)N2C1=O (stereo not given)	.	-6%[46.1 µM]	.	1.3%	10%	.	11%	.
COc1cc2nc(NC(=O)c3ccccc3)[nH]c(=O)c2cc1OC	-2%	-12%	-9%	0.7%	-29%	2%	8%	-19%
COc1cc(C2C3=C(CC(c4ccco4)CC3=O)Nc3ccccc3N2C(C)=O)cc(OC)c1OC (stereo not given)	-14%	1%	17%	-5.9%	43%[activator]	-5%	29%	-8%&-8%
COc1ccc(CCNc2ncnc3c2cnn3-c2cccc(Cl)c2)cc1	.	-17%[46.1 µM]	.	0.4%	?	.	10%	.
CN1C(=O)C2(c3ccccc31)N(C)CC(c1ccccc1)C21SC(=S)N(Cc2ccco2)C1=O (stereo not given)	0%	?	3%	5.1%	-5%	-18%	-19%	?
COc1ccc(NC(=O)CSc2nc3c(c(=O)n(C)c(=O)n3C)n2C)c(OC)c1	2%	7%	?	.	?	2%	.	8%[46.1 µM]
O=C1[C@@H]2CSCN2C(=O)CN1Cc1ccc(F)cc1	-20%	14%	9%	.	-15%	-2%	.	-11%[46.1 µM]
O=C(NCc1ccc(F)cc1)c1ccc(CS(=O)(=O)c2ccc(Cl)cc2)o1	.	?	.	-2.9%	?	.	14%	.
Cc1ccc(NC(=O)Cn2cc(C(=O)c3ccco3)c3ccccc32)cc1	.	?	.	-4.3%	-22%	.	-2%	.
Cn1cnc([N+](=O)[O-])c1S(=O)(=O)Oc1ccccc1	-12%	?	.	.	25µM*	.	.	?
N#CCc1nc2c3c4c(sc3ncn2n1)CCCC4	.	.	6%	-0.8%	-8%	-5%	-5%	.
COc1cc(/C=N\Nc2nc3ccccc3[nH]2)cc(OC)c1OC	2%	-7%	2.8µM*	-19%	-18%	5%	-13%	13µM*
O=C(CSc1nc(-c2ccccc2)cc(C(F)(F)F)n1)c1cccc([N+](=O)[O-])c1	13%	8%	8%	-8.2%	?	-2%	-6%	-1%
O=C(Nc1nnc(N2CCCCCC2)s1)Nc1cc(F)ccc1F	.	-2%[46.1 µM]	.	-3.5%	34%[activator]	.	-12%	2%[46.1 µM]
CCCCCC1(C)NC(=S)N(c2ccccc2)N1 (stereo not given)	2%	-20%	.	.	22%	-2%	.	-14%[46.1 µM]
COc1ccc(CN(C)C(=O)COC(=O)c2ccc3c(c2)OCO3)cc1OC	6%	2%	-131%	0.8%	-17%	4%	9%	-4%
CCOC(=O)C1=C(C)N=c2s/c(=C/c3cccc([N+](=O)[O-])c3O)c(=O)n2C1c1ccc(OC)cc1OC (stereo not given)	4%	22%[46.1 µM]	30%	.	?	-6%	.	?
Cc1ccc(S(=O)(=O)N2CCCCC2CCNC(=O)C(=O)NCc2cccnc2)cc1 (stereo not given)	0%	?	.	.	-3%	0%	.	-12%
Cc1cc(-c2ccccc2)nc2cc(C(=O)NCCCn3ccnc3)nn12	-1%	0%	2%	-2.6%	-14%	7%	8%	-3%
CNC(=O)NC(=S)NC(=O)c1ccc(OC)cc1	-11%	15%	-51%	1.3%	26%	-8%	0%	16%
N[C@H](Cc1ccc(Cl)cc1)C(=O)O	.	.	.	1.2%	-10%	.	3%	23%&23%
CCN1CCN(CCCNC(=O)C2CCN(c3nnc(-n4c(C)ccc4C)s3)CC2)CC1	-1%	.	3%	.	-24%	-4%	.	.
CC(C)(C)c1csc(NC2=NS(=O)(=O)c3ccccc32)n1	0%	-2%	-2%	0.2%	.	-3%	-5%	?

Further compounds:
Compound	RE007 growth inh	LASV entry inh	NS1 function inh	Cruzain inh Det	2A StopGo	SARS PLP yeast	Cruzain inh noDet	MARV entry inh
CC1CCC(NC(=O)CCn2ccc3cc(S(=O)(=O)N4CCCC4)ccc32)CC1 (stereo not given)	5%	.	0%	.	-21%	7%	.	.
Cc1nnn(-c2nonc2N)c1C(=O)NNC(=O)c1ccc(Cl)c(Cl)c1	2%	7%[46.1 µM]	.	.	-21%	8%	.	?
O=C(CNC(=O)c1cccs1)OCC(=O)c1ccc([N+](=O)[O-])cc1	-9%	9%	9%	.	6%	-1%	.	-24%[46.1 µM]
COc1ccc(C(C[N+](=O)[O-])c2c(-c3ccccc3)cc3ccccn23)cc1OC (stereo not given)	?	-5%	-71%	-4.6%	?	.	?	?
CCOC(=O)C1CCN(c2cc(C)nc3cc(-c4cccc(F)c4)nn23)CC1	6%	-22%	-4%	-2.3%	-13%	-2%	?	?
Cc1cccc(OCC(=O)Nc2nc3c(s2)CC(C(C)(C)C)CC3)c1C (stereo not given)	.	5%[46.1 µM]	.	-3.3%	0%	.	-3%	10%[46.1 µM]
COc1cc(C(=O)NCCC(C)C)c([N+](=O)[O-])cc1OC	-20%	1%	10%	0.3%	.	9%	25%	-2%
Cc1ccc(S(=O)(=O)Cc2ccc(C(=O)N3CCN(c4cc(C)ccc4C)CC3)o2)cc1	16%	-5%	8%	-13%	-23%	2%	?	-17%&-17%
Cc1cccc(N2CCN(C(=O)C3CCN(c4ncnc5c4nc4n5CCCCC4)CC3)CC2C)c1 (stereo not given)	-22%	10µM*	9%	.	32µM*	-54%	.	?
